# Compound activity: PubChem, National Center for Advancing Translational Sciences (NCATS)
# StopGo reporter – lowers the luciferase signal of an FMDV 2A StopGo reporter; human cells with a luciferase reporter of 2A StopGo recoding; control for the full effect not named in the record; Potency, µM (top dose mostly 57.9 µM), inactives show top-dose signal change, negative = less light; 410,000 compounds, 1.2% hits; AID 1159524; active = well fitted falling curve with a large enough effect; inconclusive = small, poorly fitted or top-dose-only effect; inactive = no such curve, though single readings can be large or run the other way; tested in HEK293T cells; also: nearly all actives have a fitted effect of over 45% in size; luciferase light after 4 h
# RE007 growth inh – less growth of the S. pombe RE007 Vpr strain; S. pombe RE007 Vpr strain, BacTiter-Glo ATP luminescence, 24 h; control for the full effect not named in the record; Potency, µM (series often up to 92.2 µM), inactives show at the highest dose activity change, negative = less growth; 360,000 compounds, 0.21% hits; active = well fitted falling curve with a large enough effect; inconclusive = small, poorly fitted or top-dose-only effect; inactive = no such curve, though single readings can be large or run the other way;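 also: nearly all actives have a fitted effect of over 50% in size; the assay follows cell death caused by Vpr and the record does not say whether a fall means rescue or toxicity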
#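 Fission yeast strain RE007, carrying one chromosomally integrated HIV-1 vpr copy, was seeded at OD 0.01 in PMG+AL medium with 23 nL pinned compound. After 24 h at 30 °C and 99% humidity, viability was read by BacTiter-Glo luminescence.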
# An asterisk follows results filed as active; ? = inconclusive; [ ] = another dose, or the depositor's remark. % is scaled to controls: 0 for no effect and ±100 for the full control effect; potency is read from the fitted curve at half-maximal effect. A portion of the library; rates above refer to the full screens.
SMILES,StopGo reporter,RE007 growth inh
CC1(C(=O)Nc2ccc3c(c2)OCCO3)CN(S(C)(=O)=O)CC(=O)N1Cc1cccc(C(F)(F)F)c1 (stereo not given),-8%,8%
CCCCNC(=O)C[C@@H]1C[C@@]2(C(=O)OC)CC(C)(C)CC=C2N(CCc2ccc(OC)c(OC)c2)C1=O,0%,-2%
CN[C@H]1C[C@H]2c3cc(N4CCN(C)CC4)ccc3CCN2C(=O)[C@H]1[C@H](C)O,-13%,-6%
COc1ccc(S(=O)(=O)N(C)C[C@@H]2OCc3cnnn3CCCC(=O)N([C@@H](C)CO)C[C@H]2C)cc1,-19%,-17%
CCCCN(C)C(=O)c1sc(=O)n(Cc2c(C)cccc2C)c1C,-8%,0%[18.4 µM]
CCOC(=O)C1=CCN(S(=O)(=O)c2ccccc2F)C1c1cccc(Br)c1 (stereo not given),-24%,-7%
Cc1ccc2c(c1)C(=O)N1c3cc(C)c(C)cc3NC(=O)C1C(=O)N2 (stereo not given),-13%,9%
CC1CN(c2nc3ccccc3nc2SCC(=O)Nc2cccc(C(F)(F)F)c2)CC(C)O1 (stereo not given),?,3%
COc1ccccc1N1CCN(S(=O)(=O)CCNC(=O)/C=C/c2ccc3c(c2)OCO3)CC1,?,-1%
CC1=CC(=O)C(Sc2ccc(C)cc2)=CC1=O,?,22µM*
CC1=CNC(=O)CC(C)(C)C1,-20%,8%
C[C@@H]1CN([C@@H](C)CO)C(=O)c2cc(Br)cnc2O[C@H]1CN(C)C(=O)Cc1cccnc1,5%,9%
CCCCCC(=O)N1C[C@H](n2cc(C3CC3)nn2)[C@@H](O)C[C@@H]1c1ccc(OC)cc1,0%,?
Nc1nnc2cc(F)ccc2n1,-24%,-12%
CSc1ncnc2c1ncn2CCCNc1ccc(C)c(C)c1,0%,-2%
CC(NC(=O)C1CCN(Cc2ccccc2)CC1)c1cccc2ccccc12 (stereo not given),-1%,-13%
O[C@H]1C[C@H](c2ccccc2)N(CC2CCCCC2)C[C@@H]1n1cc(-c2ccc(F)cc2)nn1,?,-12%
COc1ccc(S(=O)(=O)N2CCC[C@H]2C(=O)N2CCC[C@H]2C(=O)N[C@@H](C)c2ccccc2)cc1C,-8%,7%
O=S(=O)(NCCCc1ccccc1)c1ccc(Br)cc1,41%[activator],-5%
CN(C)CCNc1nc(-c2ccccc2F)c2sccc2n1,-12%,-15%
CC1(c2nnnn2-c2ccc3c(c2)OCCO3)CCC(=O)N1CCc1ccccc1F (stereo not given),-3%,2%
CC(C)C[C@@H]1Cc2[nH]c(=S)[nH]c(=O)c2[C@H](C)O1,-26%,-10%
N#Cc1ccccc1S(=O)(=O)N1CCN(C(=O)CN(Cc2ccco2)Cc2cccs2)CC1,-12%,-14%
CC1(C(=O)Nc2ccc3c(c2)OCO3)CCN1C(=O)Cc1cc(F)ccc1F (stereo not given),-3%,9%[18.4 µM]
O=c1c2ccccc2ncn1-c1cccc([N+](=O)[O-])c1,-13%,11%
CC(=O)Nc1ccc(NC(=O)C2(C)Cc3c(-c4ccccc4)ccnc3O2)cc1 (stereo not given),-26%,-11%
COC(=O)[C@]12CCCCC=C1N(CCC1=CCCCC1)C(=O)[C@H](CC(=O)NCc1cccc3ccccc13)C2,-18%,-5%
COCCNC(=O)/C(C#N)=C1\N=C(NC(=O)c2ccco2)c2ccccc21,?,-8%
CC1(C(=O)NC2CCCC2)CCC(=O)N1C1CCN(Cc2ccccc2)CC1 (stereo not given),-8%,-5%
COc1ccc(Cc2nc3ccc(C(=O)NCc4cccc(C)n4)cc3o2)cc1OC,-8%,-10%
O=C(Nc1cc(S(=O)(=O)N2CCOCC2)ccc1N1CCOCC1)c1cccc(Cl)c1,-15%,3%
CCOc1ccc2c(c1)C(=NNC(=O)c1ccccn1)c1cc(OCC)ccc1-2,-3%,-2%
C#CCNC(=O)C[C@@H]1C[C@@]2(C(=O)OC)CCCCC=C2N(Cc2ccc3c(c2)OCO3)C1=O,3%,-6%
CCC(=O)N1CCCC1(C)C(=O)Nc1cc(OC)ccc1OC (stereo not given),-5%,9%[18.4 µM]
Nc1c(Cl)cc(-c2csc(N3CCCC3c3nc4cc(Cl)c(N5CCCCC5)cc4n3CCOCCO)n2)cc1Cl (stereo not given),-13%,0%
Nc1nc(N)nc(-c2cccc([N+](=O)[O-])c2)n1,6%,12%[18.4 µM]
CC1(C(=O)Nc2ccc3c(c2)OCCO3)CCC(=O)N1C1CC1 (stereo not given),-10%,7%
COc1ccc([C@H]2CC(=O)C[C@@H](CCn3cc(C)nn3)O2)cc1,-20%,9%
OCCNc1ncnc2c1ncn2[C@H]1CN(Cc2ccc3c(c2)OCO3)C[C@@H](CO)O1,-9%,0%
CC(=O)Nc1ccc(NC(=O)C(NC(=O)c2ccc(Cl)cc2)C(C)C)cc1 (stereo not given),-2%,4%
COc1ccccc1Cc1c(C2CCCCC2)nc2ccc(Br)cn12,-25%,-17%
COc1ccc(Cl)cc1-c1cc(C(=O)NCc2ccccc2)[nH]n1,-6%,22%
O=P(/C=C1\OCc2ccccc21)(Oc1ccccc1)Oc1ccccc1,53%[activator],14%
O=C(C1CCCCC1)N1C[C@H](n2cc(C3CC3)nn2)[C@@H](O)C[C@@H]1c1ccc(Cl)cc1,-22%,-3%
N#Cc1ccc(C(=O)N2CCC3CC2c2cc(-c4ccc(F)cc4)ccc23)cc1 (stereo not given),0%,?
C=CCOc1ccccc1CNn1c(C)n[nH]c1=S,-2%,-3%
COCCn1cnc2c1c(=O)n(CC(=O)NC1CCCCC1)c(=O)n2Cc1ccccc1,-22%,-2%
CN(C)CCN1CCN(C2CN(Cc3cn(Cc4cccc(Cl)c4)nn3)S(=O)(=O)C2)CC1 (stereo not given),-17%,6%
COc1cccc(C(NC(C)=O)c2nc(-c3ccoc3)cs2)c1 (stereo not given),-11%,9%[18.4 µM]
COc1cccc(CNc2nc3cc(-c4cccc(OC)c4)sc3c(=O)n2C)c1,-21%,-4%
CCCCCCSc1ccc(-c2nc3cnccn3c2NC2CCCCC2)cc1,?,1%
O=C1NCN(c2ccccc2)C12CCN(C(c1ccccc1OC(F)(F)F)c1nnnn1-c1ccc3c(c1)OCCO3)CC2 (stereo not given),-6%,-3%
CC1(c2nnnn2-c2ccc3c(c2)OCCO3)CCC(=O)N1CCc1c[nH]c2ccccc12 (stereo not given),-14%,-2%
O=C(Nc1ccc(N2CCCC2)c(Cl)c1)c1ccccc1F,33%[activator],-12%
O=C(Nc1cccc(Oc2ccccc2)c1)c1ccc(-n2cncn2)c2ccoc12,-2%,-3%
COC(=O)[C@@]12C[C@@H](CC(=O)NCCC(C)C)C(=O)N(Cc3ccc4c(c3)OCO4)C1=CCC(C)(C)C2,22%,-6%
CC(=O)Nc1ccc(-c2ccnc3c2CC(C(=O)Nc2ccc(Cl)c(C(F)(F)F)c2)O3)cc1 (stereo not given),0%,-1%
COc1cc(NC(=O)CCl)ccc(=O)c1,?,-4%
CCCN(CC(=O)Nc1ccccc1OC)C(=O)c1ccc(S(=O)(=O)Nc2ccccc2OC)cc1,-17%,9%
Cc1ccc(NC(=O)COC(=O)CN2CCSC2=O)cc1F,-14%,3%

# A run of entries of the results above, for reference:
SMILES,StopGo reporter,RE007 growth inh
COc1cccc(C(NC(C)=O)c2nc(-c3ccoc3)cs2)c1 (stereo not given),-11%,9%[18.4 µM]
COc1cccc(CNc2nc3cc(-c4cccc(OC)c4)sc3c(=O)n2C)c1,-21%,-4%
CCCCCCSc1ccc(-c2nc3cnccn3c2NC2CCCCC2)cc1,?,1%

# (listing goes on)
SMILES,StopGo reporter,RE007 growth inh
COc1ccc(OC)c(NC(=O)C2(C)CCN2C(=O)CC2CC2)c1 (stereo not given),-13%,3%[18.4 µM]
COC(=O)c1ccc2nc(-c3ccc(OC)c(OC)c3)c(Cc3ccccc3OC)n2c1,-13%,-18%
CCN1C[C@@H]2[C@@H]3C(=O)N(Cc4ccccc4)C(=O)[C@@H]3[C@](CC)(C1=O)N2C(=O)c1ccc(F)cc1,-7%,3%
CCOC(=O)[C@]12CCC=C1N(CCC1=CCCCC1)C(=O)[C@H](CC(=O)NCc1cccc3ccccc13)C2,-5%,6%
COc1ccccc1CNc1nc(NCc2ccc3occc3c2)c2sccc2n1,25µM*,-28%
Cc1ccc(C)c(NC(=O)COC(=O)c2cccc(S(=O)(=O)N3CCCC3)c2)c1,0%,6%
CCN(C(=O)COC(=O)CSc1ccc(C)cc1C)c1c(N)n(Cc2ccccc2)c(=O)[nH]c1=O,-14%,-10%
O=[N+]([O-])c1ccc(C=NN2CCNC2=S)o1,-9%,14%
CC(C)(C)C(=O)c1c(N)[nH]c(C(=O)c2ccccc2)c1-c1ccc(Cl)cc1,-14%,2%
CC(C)C[C@H]1COc2cccc(N(C)CCO)c2S(=O)(=O)N1,-3%,2%
O=C(O)c1cc([N+](=O)[O-])ccc1-c1ccc([N+](=O)[O-])cc1C(=O)O,0%,-1%
COc1ncnc2c1ncn2CCCNc1ccc(C)c(C)c1,-16%,0%
COc1cccc(OC)c1C(=O)N1CCN(Cc2c[nH]c3ccccc23)CC1,-2%,-9%
CCOc1ccc(CCN2C(=O)C(=O)N([C@@H](CC(C)C)CN3CCC[C@@H]3CN3C(=O)C(=O)NC[C@@H]3Cc3ccccc3)C[C@@H]2Cc2ccc(O)cc2)cc1,-17%,2%
COc1c(C)cc(C(O)c2ncc(-c3ccccc3F)[nH]2)cc1C (stereo not given),20%,-20%[18.4 µM]
Cc1ccc(F)cc1C(=O)N1CCCCC1c1cc(C(=O)Nc2cccc(C#N)c2)no1 (stereo not given),0%,3%
CCCS(=O)(=O)NC(=O)C1(C)CCCN(C(=O)c2cccc(Cl)c2)C1 (stereo not given),5%,9%
COc1ccc(-c2nc3c(C)cc(Br)cn3c2Cc2cccc(Cl)c2)cc1OC,4%,-6%
COC(=O)CN1C(=O)[C@@H]2[C@H](C1=O)[C@@H]1CC(C(=O)OC)=C[C@@H](C(=O)OC)[C@@H]3C1=C(C(=O)[C@@]3(C)NC(=O)c1ccccc1)[C@@H]2C,-9%,2%
C[C@]12CCC(=O)C=C1CC[C@@H]1[C@@H]2[C@@H](O)C[C@]2(C=O)[C@@H](C(=O)CO)CC[C@@H]12,-6%,3%[18.4 µM]
COC(=O)C1=C(c2cccc(OC)c2OC)C[C@@H]2CC[C@H]1N2C(=O)NCc1ccco1,4%,4%
COc1ccc(C2=CC(=O)CC(c3ccc(F)cc3)C2)cc1 (stereo not given),-5%,-6%
N#Cc1ccc2[nH]cc(C3c4cc(F)ccc4C=C(c4ccsc4)N3c3ccc(C#CCCO)cc3)c2c1 (stereo not given),-14%,9%
Cc1ccccc1OCCC(=O)OCC(=O)Nc1ccc(C)c(S(=O)(=O)N2CCCCC2)c1,-24%,-13%
COc1ccc([N+](=O)[O-])cc1C(=O)NC1CCN(Cc2ccccc2)CC1,-15%,-18%
Cc1cc(Nc2ccccc2)cc(=O)n1C,0%,-4%
COc1ccccc1Cc1c(-c2ccc(Cl)cc2)nc2ccc(Cl)cn12,48%[activator],-28%
COc1ccc(C(N)c2csc(Nc3ccc(C(F)(F)F)cn3)n2)cc1 (stereo not given),-24%,-3%
O=C(Nc1ccc2nc(C(F)(F)F)[nH]c2c1)[C@@H]1O[C@H](CO)[C@@H](O)[C@H]1O,-6%,4%[18.4 µM]
CCCCc1c(-c2ccccc2OC)ncn1CCc1cccc(Cl)c1,?,?
O=C1[C@H]2[C@@H](c3ccccc3)N[C@]3(CCCN(Cc4ccc(F)cc4)C3=O)[C@H]2C(=O)N1Cc1ccccc1,0%,14%
O=C(NCc1ccccn1)[C@@H]1CCCN1C(=O)[C@@H]1CCCN1C(=O)c1ccc(Cl)cc1,-12%,9%
CC(=O)c1ccc(Nc2nc(CN)cs2)cc1,-1%,7%[18.4 µM]
CCOC(=O)CC1(CC)Oc2ccccc2N1S(=O)(=O)c1ccc(C)cc1 (stereo not given),-16%,8%
CC1(C(=O)NCc2ccc3c(c2)OCO3)CCN1C(=O)Cc1cccc2ccccc12 (stereo not given),-19%,7%
C[C@H]1CCC[C@@]2(O[C@@H](CCO)C[C@H](O)[C@H]2O)O1,-7%,9%

# Reprinted from the part before: 4 entries, followed by the next part.
SMILES,StopGo reporter,RE007 growth inh
CC(=O)c1ccc(Nc2nc(CN)cs2)cc1,-1%,7%[18.4 µM]
CCOC(=O)CC1(CC)Oc2ccccc2N1S(=O)(=O)c1ccc(C)cc1 (stereo not given),-16%,8%
CC1(C(=O)NCc2ccc3c(c2)OCO3)CCN1C(=O)Cc1cccc2ccccc12 (stereo not given),-19%,7%
C[C@H]1CCC[C@@]2(O[C@@H](CCO)C[C@H](O)[C@H]2O)O1,-7%,9%
CC(=O)c1ccc(Nc2nc(C(N)C3CCCCC3)cs2)cc1 (stereo not given),-23%,3%
OC(c1ccccc1)c1nc(/C=C/c2ccc(C(F)(F)F)cc2)cs1 (stereo not given),-11%,3%
CCC(CO)Nc1ccn2nc(-c3cc(OC)c(OC)c(OC)c3)cc2n1 (stereo not given),2%,-11%[18.4 µM]
Cc1ccc(-c2c(C#N)c(N)n(-c3ccc(Cl)cc3)c(=O)c2C#N)cc1,11%,12%
O=C1OC(c2ccccc2)(N(Nc2ccccc2)c2ccccc2)c2ccccc21 (stereo not given),-17%,0%
